HPGD block: qHTS Assay for Inhibitors of HPGD (15-Hydroxyprostaglandin Dehydrogenase); purified HPGD, NADH fluorescence kinetic, PGE2 substrate; Potency, µM, for inactives: at the highest dose activity change, negative = inhibition, actives largely listed as inhibitors; actives 4.3% (n = 150,000); AID 894, 2007; active = well fitted inhibition curve with a large enough effect (not every such curve was filed as active); inconclusive = small, poorly fitted or top-dose-only effect, or another doubt; inactive = no such curve, though single readings can be large or run the other way;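 also: top concentration of the series not given in the record; plate controls included wells without enzyme; inactives centre near -10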
Target sequence (P15428 whole entry, looked up): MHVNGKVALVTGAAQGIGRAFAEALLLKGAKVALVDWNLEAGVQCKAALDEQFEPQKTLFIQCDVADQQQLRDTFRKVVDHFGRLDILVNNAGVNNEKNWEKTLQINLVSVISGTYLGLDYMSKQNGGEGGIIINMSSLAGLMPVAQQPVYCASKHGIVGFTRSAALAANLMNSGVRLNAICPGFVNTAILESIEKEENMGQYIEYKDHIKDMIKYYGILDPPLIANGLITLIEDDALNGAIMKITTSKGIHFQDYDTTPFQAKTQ
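20 nM HPGD preincubated 15 min at room temperature with compound in 50 mM Tris-HCl pH 8, 0.01% Tween 20. Started with 1 mM NAD+ and 30 uM prostaglandin E2; NADH fluorescence (360/450 nm) read 5 times over 30-s intervals, last minus first.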
An asterisk follows results filed as active; i = inactive; ? = inconclusive; & = joins results of further samples. % is scaled to controls: 0 for no effect and ±100 for the full control effect; potency is read from the fitted curve at half-maximal effect.

HPGD block,SMILES
-18%,Cc1ccc2c(c1)N(CCC(=O)NCC1CCCO1)C(=O)CO2 (stereo not given)
-6%,CCc1ccc(NC(=O)CSCCN2C(=O)c3ccccc3C2=O)cc1
-7%,O=C(Nc1ccc(N2CCCC2)c(Cl)c1)c1ccc([N+](=O)[O-])cc1
-7%,O=C(NCc1ccccc1)c1ccc(/C=N/O)nc1
-7%,COc1cccc(NC(C)C(=O)N2CC(C)OC(C)C2)c1 (stereo not given)
1%,CC(C)NC(=O)c1ccccc1NC(=O)C1CCCO1 (stereo not given)
-18%,CC(C)(CNc1ccc([N+](=O)[O-])cc1Cl)CNS(C)(=O)=O
-14%,Cc1ccc(NC(=S)NC2CCCC2)cc1C
i,CC1(C)C=Cc2cc3ccc(=O)oc3cc2O1
-16%,C=CCn1c(SCCN2C(=O)c3ccccc3C2=O)nc2scc(-c3ccccc3)c2c1=O
0%,COc1ccccc1NS(=O)(=O)c1cccc(C(=O)OCC(=O)Nc2cc(C)on2)c1
?,c1nc(NCCN2CCOCC2)c2cc(-c3ccc4c(c3)OCO4)ccc2n1

The list goes on; it opens with the three that closed the last part.
HPGD block,SMILES
-16%,C=CCn1c(SCCN2C(=O)c3ccccc3C2=O)nc2scc(-c3ccccc3)c2c1=O
0%,COc1ccccc1NS(=O)(=O)c1cccc(C(=O)OCC(=O)Nc2cc(C)on2)c1
?,c1nc(NCCN2CCOCC2)c2cc(-c3ccc4c(c3)OCO4)ccc2n1
-18%,CCC(c1nnnn1CCc1ccccc1)N(Cc1ccco1)Cc1cc2c(C)ccc(C)c2[nH]c1=O (stereo not given)
-14%,CCC(CC)C(=O)N1CCN(c2cccc(C)c2C)CC1
-10%,CS(=O)(=O)N1N=C(c2ccccc2)CC1c1ccc2nccnc2c1 (stereo not given)
-5%,O=S(=O)(c1ccc2ccccc2c1)N1CCCCC1
-9%,O=C(O)C1C2C=CC(C2)C1C(=O)NCCCc1ccccc1 (stereo not given)
?,Cc1ccc(NC(=S)NCC23C=CC(O2)C2C(=O)N(c4ccc(C)cc4)C(=O)C23)cc1 (stereo not given)
-4%,Cc1cc(C)cc(NC(=O)C(Nc2ccccc2)c2ccccc2)c1 (stereo not given)
-23%,CCOC(=O)c1c(NC(=O)C(C)Sc2c[nH]c3ccccc23)sc2c1CCC2 (stereo not given)
14µM*,O/N=C\c1ccc(-c2ccccc2)o1
?,COc1ccc(-c2nc3cnc(N4CCNCC4)nc3n(C3CC3)c2=O)cc1
3%,CCCCNC(=O)C1(c2ccc(OC)cc2)CCOCC1
-12%,Cc1ccc(C(=O)OC(C(=O)Nc2ccc(Cl)cc2C(F)(F)F)c2ccccc2)cc1 (stereo not given)
28µM*,CC(C)N(C(=O)c1sc2cc([N+](=O)[O-])ccc2c1Cl)C(C)C
?,Cn1c(SCC(=O)OC2CCCCC2)nnc1-c1ccc(S(=O)(=O)N2CCCC2)cc1
-25%,CCS(=O)(=O)c1ccc(-c2csc(-c3ccc(Cl)cc3)n2)c(Cl)c1Cl
-1%,Cc1cc(CNC(=O)Nc2ccc3c(c2)OCO3)nn1C
-12%,CC1CCN(CCCNC(=O)CN2CCN(Cc3ccc(Cl)cc3)C2=O)CC1
-5%,COCCN1C(=O)N[C@@H](CCc2ccccc2)[C@H](C(C)=O)[C@H]1C
-3%,O=C(Nc1ccccc1)c1cccnc1N1CCOCC1
-2%,O=C(Nc1ccccc1[N+](=O)[O-])C1=C(O)CCn2c1nc1ccccc12
?,Cc1sc2nc(CSc3ccc([N+](=O)[O-])c(C(F)(F)F)c3)[nH]c(=O)c2c1C
-8%,COc1ccc(-c2oc3cc(OC)ccc3c2C(=O)c2ccc(C#N)cc2)cc1
-7%,CCN(Cc1cc2ccccc2[nH]c1=O)S(=O)(=O)c1ccccc1
-17%,CCOC(=O)N1CCN(C(=O)c2csc3c2CCCCC3)CC1
3%,CC(=O)NCCc1csc(-c2ccccc2)n1
-13%,CCOc1nc(C#N)nc(N2CCCCC2)n1
-29%,Cc1cccc(Cn2c(=O)c3c(nc4n3CCCN4Cc3ccccc3)n(C)c2=O)c1
-30%,CCOC(=O)c1c(C)sc2c1N(C(=O)CCl)c1cc(Cl)ccc1S2
2%,O=C(NCCCNC1CCCCC1)c1ccc(/C=N/O)nc1
-9%,COCCNC(=O)Cn1ncc2ccsc2c1=O
?,CCC(c1n[nH]c(=S)n1-c1ccccc1)N(C)C (stereo not given)
-19%,Cc1ccccc1C(=O)Nc1c(C(=O)N2CCCC2)cnn1-c1ccccc1
?,CCCCc1nnc(NC(=O)CSc2nc(C)cc(=O)[nH]2)s1
-7%,COCc1nc2sc3c(c2c(=O)[nH]1)CCCC3
-6%,Cc1ccc(NC(=S)NCc2ccccn2)cc1
14µM*,Cc1cc(NC(=O)CSc2n[nH]c(-c3cccs3)n2)no1
-8%,CC(C)OC(=O)C(C#N)c1nc2ccccc2nc1N1CCCC1 (stereo not given)
-8%,CC(Sc1nc2ccccc2c(=O)[nH]1)C(=O)O (stereo not given)
-1%,CCOc1ccc(C2C(C#N)=C(N)Oc3cc(C)n(CCN(C)C)c(=O)c32)cc1OCC (stereo not given)
-8%,CN(NC(=O)C(C)(C)C)c1nc(-c2ccccc2)nnc1C(F)(F)F
-1%,CCOC(=O)c1c(NC(C)=O)sc2c(OC)c(Br)ccc12
25µM*,O=C(CSc1nnc(-c2ccc(Cl)cc2)n1Cc1ccco1)Nc1ccc2c(c1)OCCO2
-8%,COc1ccc(-c2nnn(CC(=O)N(Cc3cccs3)C(C)C(=O)NC3CCCC3)n2)cc1OC (stereo not given)
-8%,O=C(NC1CCN(C(=O)N2c3ccccc3Sc3ccccc32)CC1)c1ccccc1Cl
-10%,Cc1ccc(S(=O)(=O)N/N=C2/CCCCC2C2CCCCC2)cc1[N+](=O)[O-] (stereo not given)
-6%&-8%,COc1ccccc1OCC(O)CN1CCN(CC(=O)Nc2c(C)cccc2C)CC1 (stereo not given)
-9%,CNC(=O)c1ccccc1S(=O)(=O)c1ccccc1C#N
-18%,CC1CCN(S(=O)(=O)c2cc(Br)cc(C(=O)NC3=NCCS3)c2)CC1
?,CSc1nc2nc(C)cc(-c3ccccc3)n2n1
-4%,O=C1c2ccccc2-c2ccc(N(Cc3ccc(Br)cc3)Cc3ccc(Br)cc3)cc21
?,O=[N+]([O-])c1ccc2nc(-c3ccc(Cl)cc3)[nH]c2c1
-7%,N#CCSc1nnc(C2CCCCC2)n1-c1ccccc1
-2%,COC(=O)/C=C/C(=O)N1CCN(c2cccc(Cl)c2)CC1
-10%,CCn1c(CNc2ccc(Cl)cc2)nnc1SCC(=O)NCc1ccccc1
-8%,Cc1ccc(NC(=O)NC(=O)CN2C(=O)NC3(CCCCCCC3)C2=O)c(C)c1
-2%,Cc1ccc(C2=[N+]([O-])C3(CCCCC3=O)N(O)C2(C)C)cc1 (stereo not given)
?,Cn1c(C(=O)N2CCc3ccccc3C2)cc2c(=O)n3ccccc3nc21
-12%,CCNc1nc(NOC)nc(OCC#N)n1
-4%,CCN1/C(=C\C(C)=O)Sc2ccc(OC)cc21
-9%,O=C(O)CN1C(=O)c2cccc(Oc3ccc(Cl)cc3)c2C1=O

(more compounds)
HPGD block,SMILES
?,CC1(C(=O)N(CC(=O)NC2CCCC2)C2CCCC2)CC(=O)N=C2C=CC=CN21 (stereo not given)
-3%,S=C(Nc1ccc(Cl)cc1)NC1CC2CCCC(C1)N2C1CC1 (stereo not given)
-3%,OC1C=CSc2nc3ccccc3n21 (stereo not given)
-8%,CCCCNC(=O)CN1C(=O)NC2(CCCc3ccccc32)C1=O (stereo not given)
-14%,Cn1c(Cn2nnc3ccccc32)nnc1SCC(=O)c1ccc(F)cc1
-3%,C[C@@H](C(=O)Nc1ccc2ccccc2c1)[C@@H]1C[C@@]1(C)[C@@H](NC(=O)Oc1ccc(F)cc1)c1ccccc1
-17%,COC(=O)c1nc2ccc(C)cn2c1F
-15%,Cc1ccccc1-c1noc(N)c1C#N
-15%,CCCn1c(C)nc2c(NCCCCN3CCCC3)nc(C)nc21
-24%,Cc1ccc(-n2c(C)cc(C(=O)COc3c(CO)cc(F)cc3CO)c2C)cc1C
-27%,CCc1cc2c(=O)[nH]c(-c3ccccn3)nc2s1
-15%,Oc1c(C(c2cccc(F)c2)N2CCN(Cc3ccccc3)CC2)sc2ncnn12 (stereo not given)
8.9µM*,CC(C)(C)NC(=O)CSc1nc2ccc(NC(=O)CSc3nnnn3Cc3ccccc3)cc2s1
-12%,CC(C)c1cccc(C(C)C)c1NC(=O)c1ccc(OCC(=O)NCc2ccccc2)cc1
?,NC(=O)c1c(NC(=O)CN2C(=O)CCC2=O)sc2c1CCCCC2
-13%,COc1cccc(NC(=O)c2cc(OC)c(OC)c(OC)c2Br)c1
-11%,c1ccc(-c2nnnc3ccccc23)cc1
4%,COc1cc(C2N(C)CCC3(OCCO3)C2(C)C)cc(OC)c1OC (stereo not given)
-25%,N#Cc1nc(COc2ccc(Br)cc2)oc1NCCN1CCOCC1
?,CCN(CC1COc2ccccc2O1)C(=S)Nc1ccccc1 (stereo not given)
?,C=C(C(C)=O)C(O)c1ccccc1 (stereo not given)
-28%,COC(=O)C1C(=O)OC(C)(C)C1C(C)C(=O)c1ccccc1 (stereo not given)
0%,Cc1cccc(C(=O)NCCC(=O)Nc2nc(C)c(Cc3ccc4c(c3)OCO4)s2)c1
-7%,COC(=O)C1=C(C)N(C(C)C)C(=O)C1(NC(C)=O)C(F)(F)F (stereo not given)

Single values from the results shown.
In HPGD block, COc1cccc(NC(=O)c2cc(OC)c(OC)c(OC)c2Br)c1 shows -13%
In HPGD block, COC(=O)C1C(=O)OC(C)(C)C1C(C)C(=O)c1ccccc1 (stereo not given) shows -28%
In HPGD block, c1ccc(-c2nnnc3ccccc23)cc1 shows -11%
In HPGD block, Cc1cccc(C(=O)NCCC(=O)Nc2nc(C)c(Cc3ccc4c(c3)OCO4)s2)c1 shows 0%
In HPGD block, N#Cc1nc(COc2ccc(Br)cc2)oc1NCCN1CCOCC1 shows -25%
In HPGD block, COC(=O)C1=C(C)N(C(C)C)C(=O)C1(NC(C)=O)C(F)(F)F (stereo not given) shows -7%

Shown as labelled records: part of the list above.
N#Cc1nc(COc2ccc(Br)cc2)oc1NCCN1CCOCC1
  HPGD block: -25%

CCN(CC1COc2ccccc2O1)C(=S)Nc1ccccc1 (stereo not given)
  HPGD block: ?

C=C(C(C)=O)C(O)c1ccccc1 (stereo not given)
  HPGD block: ?

COC(=O)C1C(=O)OC(C)(C)C1C(C)C(=O)c1ccccc1 (stereo not given)
  HPGD block: -28%

(list continues)
HPGD block,SMILES
?,COC(=O)CSc1nc2c(c(-c3ccc(C)o3)c1C#N)CCCC2
0%,COc1ccc(NC(=O)N2Cc3ccccc3CC2C(=O)NC(C)(C)C)cc1 (stereo not given)
-7%,COc1cc2c(cc1OC)C(C(=O)N1CCOCC1)C(c1cccs1)N(C)C2=O (stereo not given)
-17%,Cc1ccc(N(C(=O)Cc2cccs2)C(C(=O)NC2CCCCC2)c2ccccn2)cc1C (stereo not given)
-5%,Oc1ccc(N2CCN(C(c3ccncc3)c3nnnn3C3CCCC3)CC2)cc1 (stereo not given)
-7%,N#Cc1c(SCC(=O)OCc2ccccc2)nsc1SCC(=O)OCc1ccccc1
?,CNc1nnc(-c2ccc(N(C)C)cc2)s1
-15%,Cc1ccc(C(c2nnnn2Cc2cccs2)N2CCN(Cc3ccc4c(c3)OCO4)CC2)cc1 (stereo not given)
-7%,CCCc1nnc(SCC(=O)N2CCOCC2)n1CCCOC
-6%,COc1ccc(OC2C(=O)N(CCc3ccc(OC)c(OC)c3)C2c2ccc3c(c2)OCO3)cc1 (stereo not given)
?,COc1cccc2[nH]c3c(N4CCC(C(N)=O)CC4)ncnc3c12
-1%,COc1ccc(NC(=O)/C=C/c2ccccc2)cn1
-17%,O=C(/C=C/c1cccnc1)c1ccc(NC(=O)c2cccc(Br)c2)cc1
-9%,CCCCC(C)(O)C/C=C/[C@H]1[C@H](O)CC(=O)[C@@H]1CCCCCCC(=O)O (stereo not given in full)
-22%,COc1cc(/C=C2/N=C(c3ccccc3F)OC2=O)cc(Cl)c1OS(C)(=O)=O
?,Cc1ccc(C)n1-c1nccc(-c2cccs2)n1
-20%,CC1CCN(c2nc(-c3ccccc3)c(C#N)c(=O)[nH]2)CC1
-11%,O=C(Cn1cnc2c(cnn2-c2ccccc2)c1=O)N1CCOCC1
-14%,O=C(COc1ccc2oc(-c3ccccc3)cc(=O)c2c1)Nc1ccccc1
-3%,O=C(COC(=O)CN1C(=O)C2CC=CCC2C1=O)Nc1cc(C(F)(F)F)ccc1N1CCOCC1 (stereo not given)
?,COC(=O)c1cc(O)c(OCc2ccccc2)c(O)c1
-12%,Cc1ccc2cc(CN(CC3CCCO3)S(=O)(=O)c3cccc4nsnc34)c(=O)[nH]c2c1 (stereo not given)
-12%,COc1ccc(-n2ccnc2SCC(=O)Nc2ccccc2)cc1
2.8µM*,COc1ccc(N=c2ssnc2Cl)cc1
-9%,COC(=O)N[C@@H](/C=C/c1ccccc1)[C@@H](C)[N+](=O)[O-]
-11%,COc1ccc(-n2nnnc2-c2ccccc2)cc1
-9%,CCc1ccccc1NC(=S)N1CCN(c2ccccn2)CC1
-8%,CC1=NN(C(=O)c2ccc(Cn3nc(C)c([N+](=O)[O-])c3C)o2)C(O)(C(F)(F)F)C1 (stereo not given)
-9%,COc1cc(OC)nc(-n2ncc(OC)c(Br)c2=O)n1
-3%,Cc1ccc(C)c(NC(=S)N2CCC(N(C)CC3CCCO3)CC2)c1 (stereo not given)
-10%,O=C(CN1CCN(Cc2ccc3c(c2)OCO3)CC1)Nc1ccc(F)cc1
-8%,CCSc1nnc(NC(=O)c2ccc(C)o2)s1
0%,CNC(=O)CSc1nnc(-c2cccs2)o1

Only part of the results is shown (hit frequency here may not be typical).
